ClpP mod = qHTS Assay for Activators of ClpP; Potency, µM (top dose mostly 57.5 µM), for inactives: at the highest dose activity change, negative = active; ATP-dependent Clp protease proteolytic subunit (Bacillus subtilis (strain 168)), P80244; 340,000 tested, 1.9% active; AID 651965, 2013; purified B. subtilis ClpP, FRET peptide cleavage, 20 min; active = well fitted falling curve with a large enough effect; inconclusive = small, poorly fitted or top-dose-only effect; inactive = no such curve, though single readings can be large or run the other way; further: potency means the concentration at half of the fitted maximal effect; the source files actives as falling curves though it sought activators and does not explain the sign; nearly all actives have a fitted effect of over 65% in size; many hits overshoot -100%
Target sequence (P80244 whole entry, looked up): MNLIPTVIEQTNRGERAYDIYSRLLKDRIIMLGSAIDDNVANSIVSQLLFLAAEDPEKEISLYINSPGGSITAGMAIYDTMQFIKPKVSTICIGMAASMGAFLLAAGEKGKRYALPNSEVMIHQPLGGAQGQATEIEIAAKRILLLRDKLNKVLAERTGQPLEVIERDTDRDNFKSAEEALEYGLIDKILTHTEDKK
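FRET quenching reversal measured ClpP activation: 10 microg/mL B. subtilis ClpP at pH 8 with the FRET-FV decapeptide, read at 430 nm after 320 nm excitation. The 20-min minus 0-min signal was scaled between DMSO/no-enzyme wells and ADEP (5.8 microM final).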
gsp antag = antagonists of gsp mutant (McCune-Albright syndrome); gsp-mutant cells, cAMP HTRF, 30 min; control for the full effect not named in the record; Potency, µM (titrated, usually from 76.9 µM), without a hit: top-dose activity change, negative = inhibition, usual class: inhibitors; 340,000 tested, 0.4% active; active = falling curve of any shape with a large fitted effect; inconclusive = falling curve, mostly with a smaller effect; inactive = flat or rising curve; cell line not stated here;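 further: intracellular cAMP measured with PDE inhibitor Ro 20-1724 present during compound exposure; potency means the concentration at half of the fitted maximal effect; on the % scale 0 is the no-effect control and ±100 the full control effect; nearly all actives have a fitted effect of over 65% in size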
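Measurement of cellular cAMP by homogeneous time-resolved fluorescence following a 30 min compound exposure at 37C. The PDE inhibitor […] was present throughout; the assay buffer was DPBS with 0.05% BSA and 0.005% Tween 20.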
gsp ag = activates gsp, the McCune-Albright syndrome mutation; gsp mutant cells, cAMP HTRF, 30 min; control for the full effect not named in the record; 340,000 tested, 0.13% active; Potency, µM (top dose mostly 76.9 µM), without a hit: top-dose activation (cAMP increase), actives largely listed as activators; active = well fitted activation curve with a large enough effect; inconclusive = small, poorly fitted or top-dose-only effect, or another doubt; inactive = no such curve, though single readings can be large or run the other way; cell line not stated here;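 further: phosphodiesterase inhibitor Ro 20-1724 added with compounds to block cAMP breakdown; potency means the concentration at half of the fitted maximal effect; nearly all actives have a fitted effect of over 60% in size; about a fifth of the inactives were tested at one dose only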
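Cells stably selected in G418 were plated at 2000/well, grown 16-24 hr, then given compounds in DMSO with the PDE inhibitor […] (300 uM solution added) for 30 min at 37C; cAMP was read by HTRF.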
Menin MLL FP FL = menin-MLL binding inhibition, fluorescein peptide; Fluorescence polarization, fluorescein-MLL peptide displacement from menin; 290,000 tested, under 10 active; AID 1766; FP activity change, % at 61.4 µM; inconclusive = falling polarisation curve, or a change in total fluorescence; inactive = total fluorescence flat and polarisation flat or rising; no compound was filed as active; the % refers to the polarisation; negative = inhibition;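 further: % of control where 0% means no effect; inhibitors lower the polarisation; unlabelled MLL peptide was the positive control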
TRPV1 PAM = human TRPV1 potentiation; Q8NER1; TRPV1-expressing cells, Fluo-8 calcium influx, capsaicin EC20 potentiation; host cell line not named in the record; control for the full effect not named in the record; potentiation, % at 8.33 µM; 320,000 tested, 0.02% active; active means potentiation above 80%; inconclusive means 30% to 80%; inactive means below 30%; further: 0% is about no effect
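Cells expressing TRPV1 were dye-loaded with Fluo-8 and read kinetically: 10 s baseline, 3 min after compound (agonist portion), then 2 min after EC20 capsaicin (allosteric enhancer portion). Calcium-bound dye fluorescence at 480/520 nm.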
Sfp inh = inhibitors of Bacillus subtilis Sfp phosphopantetheinyl transferase; Biochemical Sfp PPTase activity, qHTS; Potency, µM, inactives show max response, negative = inhibition, usual class: inhibitors; 310,000 tested, 3.5% active; AID 1490; active means well fitted inhibition curve with a large enough effect; inconclusive means small, poorly fitted or top-dose-only effect, or another doubt; inactive means no such curve, though single readings can be large or run the other way;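 further: the enzyme is Sfp with the accession as filed and its product quenches rhodamine fluorescence; potency means the concentration at half of the fitted maximal effect; 0% = enzyme reaction without inhibitor and -100% = no enzyme wells; top concentration of the series not given in the record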
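Fluorescence-quenching assay with 15 nM Sfp, 5 uM rhodamine-CoA and 12.5 uM BHQ-2-labelled ybbR peptide in pH 7.6 Hepes/MgCl2 buffer. Enzyme was pre-incubated with compound for 15 min at room temperature. Rate was taken from the 30-min fluorescence change (525/598 nm).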
TRPML1 blocker = blocks the human TRPML1 channel | 390,000 tested, 0.02% active | Q9GZU1 | TRPML1-inducible cells, Ca2+ dye fluorescence, FDSS; stronger effect = lower value; inhibition of EC80 agonist-evoked calcium signal | activity change, negative = inhibition, % (concentration not given with the values); in the data active means activity change below about -50%; inconclusive means about -30% to -50%; inactive means above about -30%;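 further: stimulus is agonist 54-4 at its EC80 concentration; on the % scale 0 is the no-effect control and ±100 the full control effect; compound concentration not given in the record; the text of the record puts the active cut at -80%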
Target sequence (Q9GZU1 whole entry, looked up): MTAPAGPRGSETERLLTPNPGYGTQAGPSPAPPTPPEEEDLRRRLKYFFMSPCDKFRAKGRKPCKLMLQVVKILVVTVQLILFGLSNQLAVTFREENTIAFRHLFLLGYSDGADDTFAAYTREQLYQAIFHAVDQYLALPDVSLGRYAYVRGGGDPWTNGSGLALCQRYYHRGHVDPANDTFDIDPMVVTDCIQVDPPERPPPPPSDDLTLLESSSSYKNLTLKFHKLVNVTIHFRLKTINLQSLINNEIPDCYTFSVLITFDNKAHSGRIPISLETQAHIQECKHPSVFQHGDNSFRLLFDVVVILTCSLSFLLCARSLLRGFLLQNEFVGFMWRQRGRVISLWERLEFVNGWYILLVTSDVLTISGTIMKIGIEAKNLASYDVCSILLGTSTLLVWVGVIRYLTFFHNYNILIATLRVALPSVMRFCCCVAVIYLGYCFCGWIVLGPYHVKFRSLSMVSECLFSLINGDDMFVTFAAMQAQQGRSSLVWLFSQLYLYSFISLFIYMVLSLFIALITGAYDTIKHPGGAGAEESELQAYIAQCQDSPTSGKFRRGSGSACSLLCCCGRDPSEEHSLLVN
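Tet-induced TRPML1-DL cells loaded with Ca8 no-wash calcium dye were read kinetically on FDSS. Compound addition was followed by EC80 agonist 54-4 (4 uM final); inhibition was read over 110 s.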
Active calls of the source: *; ? = inconclusive; . = no result given; & = joins results of further samples; ! = not active in a repeat; [ ] = dose if it differs, or a comment.

SMILES | ClpP mod | gsp antag | gsp ag | Menin MLL FP FL | TRPV1 PAM | Sfp inh | TRPML1 blocker
COc1cc(C(=O)NC(=S)N2CCCCCC2)cc(OC)c1OC | . | 7% | -9%[15.4 µM] | -2.0 | 13 | 10% | -3
O=C(Nc1ccc2nc(-c3ccccc3)[nH]c2c1)c1ccco1 | 28µM* | -28% | -33%[inhibitor] | 3.4 | -14 | -8% | 18
CN(C)c1ccnc(-n2cccc2/C=N/OCc2ccccc2)c1C#N | 14µM* | 7% | -10% | 6.9 | -12 | 0% | 0
O=C(NNc1nc2ccccc2nc1C(F)(F)F)c1ccccc1 | -2.1% | 9% | 4% | 0.1 | -7 | 20% | -3
CCOc1oc(-c2ccc(OC)cc2)nc1C(F)(F)F | ? | 5% | -7% | 2.3 | 2 | -9% | 1
CCN(CC1CCCO1)C(=O)C1CCN(C2CCN(Cc3ccccc3C)CC2)CC1 (stereo not drawn) | 1.3% | 6% | -96%[inhibitor] | 2.7 | -2 | 13% | 5
O=C(NCc1cccnc1)C(=O)N/N=C/c1ccccc1[N+](=O)[O-] | -1.3% | -2% | 0% | 1.3 | -1 | 22% | 9
CCOc1ccc(N(C(C)C(=O)N2CCCC2)S(C)(=O)=O)cc1 (stereo not drawn) | 0.4% | 6% | -12%[15.4 µM] | 1.2 | 18 | 5% | 19
O=c1[nH]c(/C=C/c2ccccc2F)nc2ccccc12 | 4.1% | 15% | -34%[inhibitor] | 5.8 | 7 | -6% | 20
CCOC(=O)/C=C1\SCC(=O)N1CC(=O)Nc1ccc2c(c1)CCC2 | -0.6% | 2% | -19% | 7.6 | 11 | 5% | 10
CCc1cccc(NC(=O)c2ccc(Cn3c(=O)[nH]c4ccsc4c3=O)cc2)c1 | -1.2% | 9% | 8% | 2.2 | -7 | -12% | 1
CCN(CC)CCNC(=O)C1CCC(=O)N1CCc1ccccc1 (stereo not drawn) | -0.6% | 15% | 5% | -1.8 | 1 | 6% | -5
C[C@H]1CN([C@@H](C)CO)C(=O)c2cc(Br)cnc2O[C@@H]1CN(C)C(=O)NC1CCCCC1 | 2.7% | . | 10% | . | . | . | 8
C=CCn1c(SCC(=O)Nc2ncc(Cc3ccc(C)c(Cl)c3)s2)nnc1-c1ccncc1 | 0.1% | -4% | -5%[15.4 µM] | -0.3 | 5 | 16% | -3
COc1cc2sc(-c3ccc(S(C)(=O)=O)cc3)c(-c3ccc4c(c3)OCO4)c2cc1OC | 4.5% | -17% | 2% | . | . | . | -3
Cc1ccc(C(C)C)c(OCCCCN2CCNCC2)c1 | 0.6% | 16% | -25% | -5.9 | 4 | 56µM* | .
Cc1ccc(C(=O)OC2CCOC2=O)cc1NC(=O)c1ccco1 (stereo not drawn) | 0.2% | 5% | -48%[inhibitor] | 1.8 | -3 | 2% | 35
C/C=C\C=C/C(=O)Nc1cccc(C2=NOC3(C2)C[C@@H](C(N)=O)N(C(=O)/C=C/CC)C3)c1 (stereo partly drawn) | -2.6% | -2% | . | 3.2 | -13 | 14µM* | 25
COc1ccc(CNc2nc3ccccc3n2Cc2ccccc2)cc1OC | -0.4% | -7% | ? | 3.3 | 3 | 8% | -7
Cc1cn(C2CCCO2)c(=O)nc1N (stereo not drawn) | -2.3% | 7% | -29% | . | . | . | -14

An excerpt from above in order of heavy-atom count, lowest first.
SMILES | ClpP mod | gsp antag | gsp ag | Menin MLL FP FL | TRPV1 PAM | Sfp inh | TRPML1 blocker
O=c1[nH]c(/C=C/c2ccccc2F)nc2ccccc12 | 4.1% | 15% | -34%[inhibitor] | 5.8 | 7 | -6% | 20
CCOC(=O)/C=C1\SCC(=O)N1CC(=O)Nc1ccc2c(c1)CCC2 | -0.6% | 2% | -19% | 7.6 | 11 | 5% | 10
CCc1cccc(NC(=O)c2ccc(Cn3c(=O)[nH]c4ccsc4c3=O)cc2)c1 | -1.2% | 9% | 8% | 2.2 | -7 | -12% | 1
CCN(CC1CCCO1)C(=O)C1CCN(C2CCN(Cc3ccccc3C)CC2)CC1 (stereo not drawn) | 1.3% | 6% | -96%[inhibitor] | 2.7 | -2 | 13% | 5
C/C=C\C=C/C(=O)Nc1cccc(C2=NOC3(C2)C[C@@H](C(N)=O)N(C(=O)/C=C/CC)C3)c1 (stereo partly drawn) | -2.6% | -2% | . | 3.2 | -13 | 14µM* | 25
C=CCn1c(SCC(=O)Nc2ncc(Cc3ccc(C)c(Cl)c3)s2)nnc1-c1ccncc1 | 0.1% | -4% | -5%[15.4 µM] | -0.3 | 5 | 16% | -3

The results go on.
SMILES | ClpP mod | gsp antag | gsp ag | Menin MLL FP FL | TRPV1 PAM | Sfp inh | TRPML1 blocker
Cc1cc(Nc2ccccc2)n(-c2nc3ccccc3[nH]2)n1 | -1.8% | -5% | 1% | -0.5 | 2 | 9% | -11
O=C1CSC(=S)N1/N=C/c1ccc(C(F)(F)F)cc1 | -1.1% | 16% | -15%[15.4 µM] | ? | -3 | -5% | 2
COc1ccccc1NC(=O)c1ccc(Br)c(S(=O)(=O)N2CCCC2)c1 | -4.6% | -8% | -5%[15.4 µM] | . | -26 | -2% | 93
Cc1ccc(-c2nnn(CC(=O)N(Cc3cccs3)C(C(=O)NCC3CCCO3)c3ccco3)n2)o1 (stereo not drawn) | 0.2% | 12% | -43%[inhibitor] | -3.1 | -5 | -22% | -3
COc1ccc(Nc2oc(-c3ccccc3Cl)nc2C#N)cc1 | 4.1% | 2% | 12% | -1.1 | -19 | 1% | 2
COc1ccc(N=Cc2sc(O)c3ccccc23)cc1 | -0.7% | ? | 1%[15.4 µM] | 6.2 | 0 | -15% | -29
Cc1ccc(Cn2c(=O)c3cccnc3n(CC(=O)Nc3cccc(C(F)(F)F)c3)c2=O)cc1 | 32µM*! | 3% | -31%[inhibitor] | 6.0 | 25 | ? | 35&-8
Cc1cc2oc(=O)cc(CN3CCC(C)CC3)c2c(C)c1Cl | 0.9% | -1% | -8% | -0.3 | 6 | 14% | 18
COc1ccc(Cc2nnc(NC(=O)c3ccccc3)s2)cc1OC | 0.2% | 4% | -13%[15.4 µM] | -0.6 | 2 | -12% | 14
C/C(=N\NC(=O)CCc1c[nH]c2ccccc12)c1cccc([N+](=O)[O-])c1 | . | ? | 3% | -1.6 | -4 | 16% | -13
Cc1ccc(C2=NCCn3c2c2ccc(C(F)(F)F)cc2[n+]3[O-])cc1 | 1.5% | 1% | -19% | . | 1 | . | -5
Cc1cc(NC(=O)NC(=O)c2ccccc2NC(=O)CN)ccc1Oc1ncc(Br)cn1 | 18µM* | -1% | -5% | . | . | . | -16
CCN(CC)CCNC(=O)c1cc(S(C)(=O)=O)ccc1OC | -0.2% | 1% | . | -1.7 | -4 | -16%&10%&24% | 4
Cc1cnc(C(=O)Nc2ccc(C)c(S(=O)(=O)N(C)C)c2)cn1 | -2.0% | 3% | -4%[15.4 µM] | 2.5 | 2 | 5% | -19
CCN(C(=O)COC(=O)c1c2c(nc3ccccc13)/C(=C/c1ccccc1)CC(C)C2)C1CCS(=O)(=O)C1 (stereo not drawn) | ? | -3% | 3% | 7.1 | 18 | -4% | -1
Cc1ccc(S(=O)(=O)N2CCC(C(=O)N[C@H](C(=O)NCC3CCCO3)C(C)C)CC2)cc1 (stereo partly drawn) | 0.0% | 5% | 0% | -0.2 | -8 | 1% | 10
COc1ccc(CN2C(=O)C(Cc3ccccc3)Nc3ncnc(N4CCCCC4)c32)cc1 (stereo not drawn) | -2.0% | -10% | -10% | . | -12 | . | -1
Cc1ccc(NC(=O)COC(=O)[C@H](C)NC(N)=O)c(C)c1 | -2.3% | 6% | ? | 2.2 | 5 | 21% | 15
COc1ccc(NC(=O)Cn2nnc(-c3ccc(CN4CCOCC4)cc3)n2)c(OC)c1 | 2.9% | 5% | 8% | -9.0 | ? | 13% | 2
Cc1ccc(NC(=O)CSCC(=O)Nc2cc(C(F)(F)F)ccc2N2CCOCC2)cc1 | 0.6% | -27% | -42% | . | -12 | . | -9
CC(=O)c1ccccc1NS(=O)(=O)c1cccc2nsnc12 | -1.0% | -14% | 4% | -3.4 | 3 | 2% | 0
O=C(O)c1cccc(NS(=O)(=O)c2ccc3c4c(cccc24)C(=O)N3)c1 | . | 11% | -14%[15.4 µM] | 0.9 | ? | 7% | 32
COc1ccc([C@H]2CC(=O)C=C(c3ccc(C)cc3)C2)cc1 | -2.1% | -21% | . | . | -5 | . | 35
CC(C)NC(=O)NC(=O)COC(=O)c1ccc(OC(F)(F)F)cc1 | -1.4% | -3% | -16% | 2.5 | -4 | 14% | 5
CN(C)c1ccc(CN2CCCCC2)cc1 | -2.2% | -3% | -14% | 0.7 | 15 | 2% | -18
Cc1ccc(S(=O)(=O)N(C)C)cc1NC(=O)C1CCN(C(=O)Nc2ccccc2)CC1 | . | 5% | -15%[15.4 µM] | . | -2 | . | 3
CCOC(=O)c1c(NC(=O)COC(=O)/C=C/c2ccccc2)sc(C(=O)NC)c1C | -21% | 2% | -3% | . | -14 | . | 30
CCN(Cc1ccccc1)C(=O)C1CCN(S(=O)(=O)c2ccc3c(c2)OCCO3)CC1 | -1.9% | -2% | 8% | . | -10 | 4% | 0
CN(CC(=O)NCCc1ccccc1)Cc1ccco1 | . | 2% | 12% | 0.0 | -7 | 17% | -2
CCN(CCn1cccn1)Cc1nc(Cc2cccc(F)c2)no1 | . | -9% | 3% | -4.6 | -1 | 11% | -2
Cc1ccc(CO/N=C\Cc2snc(Sc3ncc(C(F)(F)F)cc3Cl)c2C#N)cc1 | -1.7% | 0% | 10% | 16 | -10 | -13% | -18
COC(=O)c1ccc(C(=O)N2CCCC(N3CCN(c4ccc(F)cc4)CC3)C2)nc1 (stereo not drawn) | -2.7% | 1% | 4% | 0.3 | 11 | 9% | -10
Cc1ccccc1-c1cc(C(=O)NCc2ccc3c(c2)OCO3)nn1CC1CC(c2cccc([N+](=O)[O-])c2)=NO1 (stereo not drawn) | 0.3% | -8% | . | . | . | . | 15
O=c1[nH]n(-c2cccc3cccnc23)c(=O)c2ccccc12 | 0.2% | -5% | -37%[inhibitor] | -1.9 | -5 | ? | 23

Source: PubChem BioAssay
